# NPC1 prom act: activators of NPC1 promoter | Huh7 NPC1 promoter luciferase reporter, 24 h | Potency, µM (titrated, usually from 9.22 µM), without a hit: top-dose activation, usual class: activators | 320,000 compounds, 2.4% hits;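 further: potency means the concentration at half of the fitted maximal effect; % of control where 0% means no effect; nearly all actives have a fitted effect of over 60% in size; reporter is driven by a mutant NPC1 promoter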
#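 Stable NPC1-promoter luciferase Huh7 line; cpd (DMSO) 24 h, 37 °C, 5% CO2; Amplite luciferase reagent 10 min RT; luminescence readout. qHTS format.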
# FLuc modulator: firefly luciferase modulation, counter-screen for miR-21 project; purified FLuc, Km substrates, luminescence inhibition; P08659; Potency, µM (doses to about 57.5 µM), for the others: top-dose activity change, negative = inhibition, actives largely listed as inhibitors; AID 588342; 360,000 compounds, 6.9% hits;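 further: potency means the concentration at half of the fitted maximal effect; plate controls were vehicle for no effect and reference inhibitor for full effect; nearly all actives have a fitted effect of over 55% in size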
# Target sequence (P08659 whole entry, looked up): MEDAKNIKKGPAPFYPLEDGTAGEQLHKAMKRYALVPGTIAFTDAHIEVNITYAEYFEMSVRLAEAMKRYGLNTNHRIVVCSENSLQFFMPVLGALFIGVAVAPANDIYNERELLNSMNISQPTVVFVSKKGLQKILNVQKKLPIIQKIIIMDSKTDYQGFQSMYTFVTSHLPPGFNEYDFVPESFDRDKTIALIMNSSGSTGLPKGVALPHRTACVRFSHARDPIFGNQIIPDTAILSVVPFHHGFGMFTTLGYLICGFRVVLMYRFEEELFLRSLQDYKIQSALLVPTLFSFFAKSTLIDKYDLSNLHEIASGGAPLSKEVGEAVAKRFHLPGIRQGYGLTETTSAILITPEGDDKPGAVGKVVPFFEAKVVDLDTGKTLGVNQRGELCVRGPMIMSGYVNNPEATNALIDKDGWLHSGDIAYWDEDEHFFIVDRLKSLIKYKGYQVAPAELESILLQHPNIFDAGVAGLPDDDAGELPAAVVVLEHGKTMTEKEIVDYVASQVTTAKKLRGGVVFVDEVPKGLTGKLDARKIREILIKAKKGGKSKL
#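 Purified P. pyralis luciferase (10nM final) with 10uM D-luciferin and 10uM ATP (Km levels) in 50mM Tris acetate pH 7.5, 10mM Mg acetate, 0.01% Tween-20, 0.05% BSA; qHTS 6-point titration, ~60 µM downward; luminescence read.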
# Rab9 prom act: Rab9 promoter activation; 320,000 compounds, 2.8% hits; AID 485297; Huh7 Rab9 promoter-luciferase reporter, luminescence, 24 h; Potency, µM (series often up to 9.22 µM), for inactives: at the highest dose activation, negative = inhibition, actives largely listed as activators; further: potency means the concentration at half of the fitted maximal effect; % of control where 0% means no effect; nearly all actives have a fitted effect of over 60% in size
#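 Cells were plated at 1500 per well in reduced-serum medium with 10% FBS and left 2 h. Compound in DMSO was then added for 24 h at 37 °C. Reporter signal was read by luminescence after 10 min with luciferase detection reagent.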
# Gal4-VP16 FLuc: inhibits Gal4-VP16 luciferase reporter, ROR gamma counter-screen; Drosophila S2 Gal4-VP16 UAS-luciferase, luminescence, 20 h; Potency, µM (doses to about 53.6 µM), without a hit: top-dose activity, negative = inhibition, actives largely listed as inhibitors; 310,000 compounds, 3.5% hits;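 further: Gal4-VP16 expression switched on by copper sulfate through the metallothionein promoter; potency means the concentration at half of the fitted maximal effect; on the % scale 0 is the no-effect control and ±100 the full control effect; nearly all actives have a fitted effect of over 50% in size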
# Giardia killer: kills Giardia lamblia | Giardia lamblia trophozoite viability | activity change, % at 7.66 µM, hits read low | AID 540267 | 340,000 compounds, 0.15% hits; in the data active means activity change below about -80%; inconclusive means between about -30% and that limit;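 further: parasites exposed to compound for two days anaerobically before the ATP read; on the % scale 0 is the no-effect control and ±100 the full control effect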
#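 Media and compound were dispensed first, then trophozoites at 100 cells/well; plates sat 48 hrs at 37 deg C without oxygen before ATP luminescence reagent was added and read after 15-30 min at room temperature.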
# BRCA1 expr act: activators of BRCA1 expression; 380,000 compounds, 1.1% hits; MCF7-BRCA1-FFLuc reporter, luminescence, 48 h; response scale: scaled: vehicle 0%, 10 µM genistein 100%; Potency, µM (doses to about 46.1 µM), without a hit: at the top dose activation, hits mostly activators; further: potency means the concentration at half of the fitted maximal effect; nearly all actives have a fitted effect of over 80% in size; some results filed as inactive show a strong effect at the top dose
#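 Activators of BRCA1 expression were detected as increased firefly luciferase luminescence in engineered MCF7 cells after 48 h compound incubation. Signals were scaled to genistein 10 microM as full activation.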
# RORg inh: blocks mouse ROR gamma transcriptional activity; Potency, µM (series often up to 53.6 µM), without a hit: top-dose activity change, negative = inhibition, most hits filed as inhibitors; 310,000 compounds, 5.4% hits; Drosophila S2 Gal4-RORgamma UAS-luciferase reporter, 20 h; further: potency means the concentration at half of the fitted maximal effect; on the % scale 0 is the no-effect control and ±100 the full control effect; nearly all actives have a fitted effect of over 60% in size
# Target sequence (P51450 whole entry, looked up, the tested form may be a part): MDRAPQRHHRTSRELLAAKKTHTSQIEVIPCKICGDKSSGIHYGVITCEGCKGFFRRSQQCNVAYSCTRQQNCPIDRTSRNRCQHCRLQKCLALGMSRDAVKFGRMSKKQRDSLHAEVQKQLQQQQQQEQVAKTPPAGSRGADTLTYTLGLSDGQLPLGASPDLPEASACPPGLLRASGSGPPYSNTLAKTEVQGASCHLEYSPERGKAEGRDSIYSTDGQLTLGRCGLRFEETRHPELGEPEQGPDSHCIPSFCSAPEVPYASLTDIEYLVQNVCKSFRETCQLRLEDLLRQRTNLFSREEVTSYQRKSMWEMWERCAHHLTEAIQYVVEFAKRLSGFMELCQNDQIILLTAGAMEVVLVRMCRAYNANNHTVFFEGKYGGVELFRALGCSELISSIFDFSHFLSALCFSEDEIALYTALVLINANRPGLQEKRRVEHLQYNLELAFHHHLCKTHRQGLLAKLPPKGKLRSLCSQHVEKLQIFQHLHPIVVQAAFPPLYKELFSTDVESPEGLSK
#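 Drosophila Schneider cells stably carrying a metallothionein-driven Gal4 DBD–ROR gamma fusion and a UAS-Photinus luciferase reporter were exposed to compound for 1 hr, then induced with copper sulfate (700 uM final) for 20 hr at ambient temperature before luminescence reading.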
# Menin MLL FP TR: displaces Texas Red mutant MLL peptide from human menin; Menin + Texas Red MLL mutant peptide, fluorescence polarization; Potency, µM (top dose mostly 61.6 µM), without a hit: at the highest dose FP activity change, negative = inhibition, most hits filed as inhibitors; 270,000 compounds, 0.23% hits; AID 1768; active means well fitted inhibition curve with a large enough effect in the polarisation, with a control signal flat, not every such curve was filed as active; inconclusive means small, poorly fitted or top-dose-only effect, or effect the other way, or a change in a side signal; inactive means no such curve, though single readings can be large or run the other way; the % refers to the polarisation; further: potency means the concentration at half of the fitted maximal effect; % of control where 0% means no effect; many of its hits are not listed in these tables
# p53 reactivator: restores transcriptional activity of mutant p53 | H1299 p53-A138V BP100-luciferase reporter, luminescence, 24 h | Potency, µM (titrated, usually from 92.2 µM), without a hit: top-dose activity change, positive = activation, hits mostly activators | 320,000 compounds, 0.063% hits; further: potency means the concentration at half of the fitted maximal effect; % of control where 0% means no effect; nearly all actives have a fitted effect of over 45% in size
#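 H1299 (p53-null), stable ts p53-A138V + BP100-Luc; 1000 cells/well, Opti-MEM/10% FBS; cpd 4 pt, 1:5; 24 h, 37 deg C, 5% CO2; detection reagent 10 min RT; luminescence.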
# ELG1 genotox: genotoxicity induction in ELG1-luciferase HEK293T cells. HEK293T ELG1-luciferase reporter, luminescence, 16 h. Potency, µM (titrated, usually from 46 µM), for the others: top-dose activity change, positive = activation, usual class: activators. 330,000 compounds, 1.3% hits. AID 504466; further: potency means the concentration at half of the fitted maximal effect; % of control where 0% means no effect; nearly all actives have a fitted effect of over 60% in size
#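 Quantitative HTS format in 1536-well plates. HEK293T ELG1-luciferase reporter cells receive test compound and are incubated 16 hr at 37 °C, 5% CO2; ONE-Glo added, 30 min room temperature, then luminescence read.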
# * marks the source's active call; other numbers are inactive results; ? = inconclusive; . = no result given; & = joins results of further samples; [ ] = dose if it differs, or a comment. Unless noted, the call rests on the fitted dose curve; in most records, active means well fitted curve in the direction sought with a large enough effect; inconclusive means small, poorly fitted or top-dose-only effect, or another doubt; inactive means no such curve, though single readings can be large; an effect the other way counts as inactive or inconclusive. These rows are one share of the data; count on the stated rates, not on these rows.
mol,Giardia killer,FLuc modulator,NPC1 prom act,Rab9 prom act,RORg inh,ELG1 genotox,BRCA1 expr act,Gal4-VP16 FLuc,p53 reactivator,Menin MLL FP TR
O=C(CNc1ccc(F)cc1)N/N=C/C1CC=CCC1 (stereo not drawn),-19,4%,0%,1%,-7%,4%,1%,-1%,-1%,8%
O=C(NCCc1nnc2ccc(N3CCCCCC3)nn12)c1ccccc1,13,2%,-2%,-4%,13%,-2%,2%,-3%,8%,.
Clc1ccc(SCc2cc(N3CCOCC3)nc(-c3ccccn3)n2)cc1,-7,0%,-4%,-18%,0.56µM*,-10%,-58%,4.5µM*,-5%,-12%
COC(=O)c1ccc2c(=O)n3c(nc2c1)SCC(c1ccccc1)=N3,3,?,15%,20%,2%,-2%,0%,-9%,6%,-6%[11.7 µM]
Cc1ccc(NC(=O)CN(c2ccc(C)cc2)S(=O)(=O)c2cccc3nonc23)cc1,-4,-1%&4%,-3%,-6%,-13%,0%,-28%&-40%,3%,0%,1%
COc1ccccc1CNc1ncnc2cc(OC)c(OC)cc12,-23,1%,-14%,0%,16%,-10%,-30%,-2%,-8%,-14%
Cc1nc2ccc(NC(=O)COc3ccccc3)cc2s1,2,?,3%,18%,3%,16%,29%,0%,4%,7%
COc1cc(NC(=O)CCNC(=O)Cn2ccc3ccccc3c2=O)cc(OC)c1OC,5,1%&-1%,-2%,0%,-12%,2%,46%,-2%,-6%,-1%
O=C(N/N=C/c1ccc[nH]1)c1cccnc1,-3,-6%,-3%,9%,?,1%,-16%,-10%,23%,1%
COc1ccc(C(=O)NCCNC(C)=O)cc1S(=O)(=O)NCc1ccc(Cl)cc1,9,-1%,1%,3%,38%,3%,-1%[1.84 µM],-6%,3%,2%
C=C(C)Cn1c(N2CCN(CC)CC2)nc2c1c(=O)[nH]c(=O)n2C,-1,4%,4%,2%,-4%,-4%,12%,-2%,5%,1%
CCNc1nnc(-c2ccncc2)s1,16,0%,-1%,-3%,6%,-1%,25%,-3%,7%,-11%
Cc1nn(C(C)(C)C)c(N)c1-c1ccccc1,-6,-14%,0%,0%,3%,2%,19%,-15%,-5%,-2%
FC(F)(F)c1ccc(-c2nnc(-c3cccnc3)o2)cc1,-6,-18%,?,16%,?,?,55%,14%,24%,2%
C=CCN(CC=C)C(=O)c1cccc(OC2CCN(CC(C)(C)C)CC2)c1,7,3%,3%,-1%,9%,3%,-7%,-17%,1%,-12%
COc1ccc(N2CCN(C(=O)c3ccc(C)cc3Cl)CC2)cc1,-4,2%,.,.,39%,.,-1%,24%,.,-29%
O=C(CNC(=O)c1ccccc1)N/N=C/c1cccs1,-6,?,0%,0%,2%,2%,43%,3%,0%,10%
C/C(=N\NC(=O)C(C)Sc1ccccc1)C(C)(C)C (stereo not drawn),-8,-3%,-1%,-2%,-37%,1%,1%,3%,3%,-3%
O=C1CC(c2ccco2)CC(O)=C1C=NCCN1CCN(C2CC(=O)N(c3ccccc3)C2=O)CC1 (stereo not drawn),-10,3%,2%,2%,12%,0%,-21%,-3%,-1%,34%[activator]
Cc1cc(C)n2cc(CSc3nnc(SCc4cn5c(C)cc(C)nc5n4)s3)nc2n1,.,-1%,2%,-4%,1%,-1%,.,6%,-3%,-4%
Cn1cc(CN2CCN(CCc3ccccc3)C(CCO)C2)cn1 (stereo not drawn),1,-2%,0%,10%,-3%,3%,-6%,-11%,-2%,-1%
CCC1(c2ccccc2)NC(=O)N(CC(=O)Nc2ccc(S(N)(=O)=O)cc2)C1=O (stereo not drawn),5,0%,-5%,-7%,9%,1%,-9%,4%,-4%,50%[activator]
C=CCn1c(NC(=O)c2ccccc2)nc2ccccc21,2,24µM*,?,?,0.56µM*,13%,33%,1µM*,-15%,38%[activator]
O=C(Nc1ccccc1)c1ccc(C(=O)Nc2ccccc2)nc1,-13,-12%,?,2µM*,20%,?,34%,-14%,9%,-17%
CC(C(=O)OCC(=O)Nc1cccc(S(=O)(=O)N(C)C)c1)N1C(=O)c2ccccc2C1=O (stereo not drawn),10,3%,1%,3%,13%,0%,-8%,-4%,0%,13%
CCCc1nnc(SCC(=O)N(CC)CC)n1CC1CCCO1 (stereo not drawn),-13,-1%,-2%,-3%,-31%,20%,0%,2%[10 µM],3%,-1%
CCOC(=O)C1=C(C)NC2=C(C(=O)CC(C)(C)C2)C1c1coc2ccccc2c1=O (stereo not drawn),7,1%,0%,-2%,10%,0%,-37%,-14%,-8%,-16%
Cc1nonc1NC(=O)CSc1nnc(-c2ccoc2C)n1-c1cccc(Cl)c1,10,-5%,-1%,-1%,27%,1%,0%,9%,-11%,6%
Cc1cc(-c2nnc(SCC(=O)Nc3ccccc3Cl)n2C)no1,-5,-2%,-3%,-1%,3%,-2%,2%,-5%,-3%,.
CCCCn1nnnc1SCC(=O)Nc1cccc(C)n1,13,-1%,1%,-2%,-3%,0%,-8%,-3%[0.365 µM],-9%,2%
Cc1ccccc1OS(=O)(=O)c1cn(C)c(=O)n(C)c1=O,25,1%,1%,-1%,9%,-1%,8%,-12%,-1%,-3%
Cc1ccc(NC(=O)CCNS(=O)(=O)c2ccc3c(c2)oc(=O)n3C)cc1,-4,0%,0%,1%,5%,-4%,3%,3%,3%,0%
COC(=O)c1cc(OC)c(OC)cc1NC(=S)N1CCCCC1,-4,3%,-1%,0%,-34%,0%,-25%,2%,-7%,-13%
COc1cc(-c2cc(N)n(S(=O)(=O)c3ccc(F)cc3)n2)cc(OC)c1OC,-19,-1%,-5%,-7%,?,14%,-11%,?,-6%,?
COC(=O)/C=c1\sc2n(c1=O)C(C)=CC(C)(C)N=2,4,-3%,6%,-4%,0%,1%,-27%,0%,18%,-8%
CCCCOC(=O)NC1CCS(=O)(=O)C1 (stereo not drawn),17,2%,0%,-1%[1.84 µM],17%,0%,-13%,-7%,-2%,-5%
CCn1c(SCCN2CCOCC2)nc2c1c(=O)n(C)c(=O)n2C,-8,2%,3%,-5%,2%,-3%,0%,-5%,6%,-8%
COc1ccc(CN2CCCC(CO)(Cc3cccc(Cl)c3)C2)cc1OC (stereo not drawn),-27,0%,-1%,-1%,6%,-10%,-30%,4%,.,0%
CCN(CC)S(=O)(=O)c1ccc(NC(=O)c2c(-c3ccccc3)noc2C)cc1,-17,2%,-7%,-2%,42%,-2%,-38%,-5%,-2%,17%
COc1ccccc1OC(=O)CCc1nc2ccccc2s1,-19,19µM*,4%,-1%,4%,-5%,-42%,0%,2%,?
CNS(=O)(=O)c1cccc(C(=O)OCC(=O)Nc2ccc(-c3nc4ccc(C)cc4s3)cc2)c1,-5,4.8µM*,0.5µM*,?,0.22µM*,0.73µM*,0%,?,11%,?
O=C(CN1CCCCCC1)N/N=C/c1cccc(Cl)c1Cl,-6,?,2%,-1%,0%,4%,21%,30%,12%,-8%
CCOC(=O)C1=C(CNC2CCCCC2)NC(=O)NC1c1cc(C)ccc1C (stereo not drawn),-6,-6%[2.3 µM],-7%,-8%,?,-11%,-25%,?,4%,?
COCCn1c(SCC(=O)N2CCCCCC2)nc2c(c1=O)SCC2,-1,-3%,2%,11%,5%,?,1%,4%,?,.
COCCNC(=O)C(c1ccccc1C)N(CCOC)C(=O)Cn1nnc2ccccc21 (stereo not drawn),7,7%,-3%,-5%,13%,0%,-20%,-1%,-21%,-15%
Cc1ccccc1C(=O)NC(=S)N(C)C1CCCCC1,5,4%,?,17%,?,-1%,11%,2.8µM*,4%,-11%
O=C(Cn1ccc(C(F)(F)F)n1)N=Nc1c(O)[nH]c2ccccc12,0,0%,0%,4%,4%,4%,-6%,1%,-3%,?
O=S(=O)(c1ccc(NC(=S)N2CCN(c3ccc(O)cc3)CC2)cc1)N1CCOCC1,-4,1%,-1%,0%,35%,-6%,-18%,-4%,-3%,23%
Cc1occc1C(=O)N1CCCc2ccccc21,-2,-3%,-3%,0%,15%,-2%,-8%,-5%,2%,6%
Cc1ccc(C(=O)CC(C(=O)O)n2ccc(C)n2)cc1 (stereo not drawn),34[activator],3%,0%,-4%,22%,1%,4%,8%,-10%,0%
NC(=O)C1CC(=O)N(c2ccc(OCC(=O)NCc3ccccc3)cc2)C1 (stereo not drawn),5,-2%,-2%,2%,-33%,-1%,-4%,-3%,-3%,5%
CC(=O)NC(NC(=S)N1CCCCCC1)C(Cl)(Cl)Cl (stereo not drawn),7,-1%,0%,-3%,-4%,-2%,-7%,10%,-1%,-3%
C=CCSc1ncc(C(=O)OCC)c(N)n1,4,?,23%,?,12%,?,?,0%,14%,1%
O=C(CN1C(=O)c2ccccc2C1=O)Nc1cc([N+](=O)[O-])ccc1O,-11,-16%,0%,-3%,0%,0%,10%,2%,0%,-4%
Cc1nn(Cc2ccccc2)c(C)c1C(=O)OCC(=O)c1cc(C)n(C2CC2)c1C,0,-18%,-2%,3%,7%,-9%,-52%,-5%,-5%,19%
COc1ccc(CN(Cc2cccn2C)C(=O)c2cc3cc(OC)ccc3[nH]2)cc1,10,2%,-6%,8%,27%,-9%,-46%,-1%,-5%,.
